MenB inh: inhibitors of Mycobacterium tuberculosis MenB enzyme; AID 540299; MenB enzyme assay, absorbance read-out; some hits fall short of the stated cut; P9WNP5; 100,000 tested, 0.43% active; inhibition, %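 (about 12 µg/mL by stock and volumes)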;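 active = mean of two replicates above 30%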;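 also: 0% = no compound and 100% = wells with inactive enzyme; the first replicate is given; strong numbers were not always called active; inactives centre near -10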
Target sequence (P9WNP5 whole entry, looked up): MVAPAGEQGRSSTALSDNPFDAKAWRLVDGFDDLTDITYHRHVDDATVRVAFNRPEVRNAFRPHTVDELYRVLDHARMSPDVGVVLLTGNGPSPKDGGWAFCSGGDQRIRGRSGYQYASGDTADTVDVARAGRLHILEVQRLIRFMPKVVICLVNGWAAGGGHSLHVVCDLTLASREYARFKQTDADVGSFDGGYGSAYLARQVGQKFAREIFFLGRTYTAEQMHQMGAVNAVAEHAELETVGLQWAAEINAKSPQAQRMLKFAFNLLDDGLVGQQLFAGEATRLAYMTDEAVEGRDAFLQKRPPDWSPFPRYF
Mtb MbtI inh: inhibitors of Mycobacterium tuberculosis siderophore enzyme MbtI. 100,000 tested, 0.89% active. AID 493033. P9WFX0. inhibition, %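 (about 17 µg/mL by stock and volumes)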. purified MbtI enzyme, fluorescence intensity read-out;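 active = above 50% in both replicates, above 80% if mildly self-fluorescent; inactive = the rest, strongly fluorescent compounds included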;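 also: 0% = mean of negative and 100% = mean of positive controls; one replicate is shown; some compounds called inactive have numbers as strong as hits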
Target sequence (P9WFX0 whole entry, looked up): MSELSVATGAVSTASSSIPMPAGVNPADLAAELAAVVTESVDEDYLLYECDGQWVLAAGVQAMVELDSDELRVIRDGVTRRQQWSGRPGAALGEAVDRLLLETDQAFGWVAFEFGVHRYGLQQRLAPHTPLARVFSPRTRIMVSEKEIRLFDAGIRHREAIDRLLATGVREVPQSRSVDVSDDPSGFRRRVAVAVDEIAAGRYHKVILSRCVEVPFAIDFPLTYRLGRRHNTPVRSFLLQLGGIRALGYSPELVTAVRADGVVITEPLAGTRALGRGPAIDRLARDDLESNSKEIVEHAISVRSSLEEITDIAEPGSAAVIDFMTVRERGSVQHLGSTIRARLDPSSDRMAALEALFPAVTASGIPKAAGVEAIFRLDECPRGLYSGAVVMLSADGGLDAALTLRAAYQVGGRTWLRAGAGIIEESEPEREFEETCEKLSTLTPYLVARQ
PV pol inh: poliovirus RNA polymerase inhibition; 150,000 tested, 0.66% active; % elongation, % (compound at 16.7 µg/mL); poliovirus polymerase elongation, fluorescence polarization; active compounds read low; in the data active = % elongation below about 90%; also: some results filed as inactive read as strong as hits
PV pol inh intensity: recorded beside PV pol inh, whose call it bears; % elongation; measured here: total intensity read-out; formula for this scale not given here;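 total fluorescence in place of polarization; lower means less elongation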
An asterisk follows results filed as active; . = no result given.

Values run as follows: PV pol inh	Mtb MbtI inh	MenB inh	PV pol inh intensity
- CCOc1ccc(-c2cc(CCCC(=O)Nc3ccc(CC)cc3)no2)cc1
    102	8	-8	104
- CCCNC(=O)Cn1ncc2c3ccccc3n(Cc3ccccc3)c2c1=O
    103	-4	-2	108
- COCCN(Cc1ccccc1)C(=O)Cc1c(C)noc1C
    105	8	6	98
- Cc1ccc(C(=O)N2c3ccc(C)cc3[C@@H]3CN(C)CC[C@H]32)cc1
    98	.	-13	107
- O=C1N2CCSC2=NC1(Nc1nccs1)C(F)(F)F (configuration not stated)
    100	-21	6	102
- CC(C)(C)NC1=C(C(=O)c2ccccc2)N(CC(=O)c2ccccc2)S(=O)(=O)c2ccccc21
    104	-4	-51	111
- Cc1ccc2occ(CC(=O)Nc3nc4ccc(S(C)(=O)=O)cc4s3)c2c1
    102	-10	-8	104
- COc1cccc(-c2nc(C(N)=O)c3c(n2)n(-c2cccc(OC)c2)c(=O)n3C)c1
    101	10	-6	101
- CCC1CCCCN1c1ncnc2c1nnn2Cc1ccccc1Cl (configuration not stated)
    101	4	0	103
- O=C(O)CN1C(=O)CCCc2ccccc21
    101	-9	8	106
- CC1CCC(NC(=O)Nc2cn(C)c(=O)c3ccccc23)CC1 (configuration not stated)
    92	-1	5	92
- N#CC(C#N)=Cc1cn(-c2ccccc2)nc1C12CC3CC(CC(C3)C1)C2
    102	1	-17	102
- CN(Cc1ccc(Br)s1)Cc1cc2c(cc1O)OCO2
    96	-3	11	99
- CCC1(CC)COC2(OC1)C(=O)Nc1ccc(F)cc12
    102	-5	10	104
- COc1cccc(N(C)C(=O)c2ccc(Cl)c(S(=O)(=O)N(C)C)c2)n1
    102	2	2	101
- Cc1nc2ccccc2c2oc(C(=O)NCCCN3CCC(C)CC3)cc12
    100	81	-19	103
- O=C(CCCc1nnc2c(=O)n(-c3ccc(Cl)cc3)ccn12)N1CCc2ccccc2C1
    102	3	13	101
- COc1ccc(/C(C#N)=C/c2ccc3c(c2)OCO3)cc1OC
    100	1	-61	102
- CC(=O)Nc1cccc(Nc2ncnc3c2cnn3C)c1
    101	-9	-1	101
- O=C(NC1CCCCC1)C(c1ccc(F)cc1)N(Cc1ccco1)C(=O)c1ccccn1 (configuration not stated)
    104	-7	-30	101
- Cc1ccc(CN2C(=O)CCC2C(=O)NCCCN2CCCCC2)cc1 (configuration not stated)
    99	-12	2	100
- CCCCN(CC)C(=O)c1cn(CC)c2nc(C)ccc2c1=O
    101	-20	-18	104
- N#Cc1c(/N=C/c2c(O)[nH]c(=O)[nH]c2=O)sc2c1CCC2
    .	37	-114	.
- O/N=C1\CCCCc2c1[nH]c1ccc(C3CCCCC3)cc21
    103	.	-3	107
- COc1ccc(NC(=O)[C@@H](NC(=O)c2ccc(C)cc2)C(C)C)cc1OC
    103	-3	-4	102
- Cc1ccc(Cl)cc1N1CCN(C(=O)/C=C/c2ccc(S(=O)(=O)NCc3ccco3)cc2)CC1
    105	6	-22	111
- Cc1nc2c(=O)oc3ccccc3c2n1C(C)C
    101	19	-21	102
- CCn1cc(C(=O)NC2CCCC2)c(=O)c2cc(S(=O)(=O)N3CCCCC3)ccc21
    106	-6	-9	107
- CC(=O)Nc1ccc(C(=O)OCC(=O)C(C)(C)C)cc1
    104	-7	.	108
- Oc1ccc(/C=N/n2cc(-c3ccccc3)[nH]c2=S)cc1
    100	-68	-45	106
- COC(=O)c1c(NC(=O)CCS(=O)(=O)c2ccc(F)cc2)sc(C)c1C
    103	5	-19	106
- OCc1cn(-c2ccccc2)nn1
    102	.	-2	107
- COC(=O)CN1C(=S)N(C)C(=O)/C1=C/c1ccc(-c2ccc(Cl)cc2)o1
    106	-26	-13	114
- CN(C)CCCn1c(-c2ccccc2)cc(=S)c2c1CCCC2
    102	7	-36	96
- O=C(CSCCCc1ccccc1)NC1CCS(=O)(=O)C1 (configuration not stated)
    105	-14	-18	105
- CCCCNc1c2c3c(cccc3[nH]c1=O)C(=O)c1ccccc1-2
    87	-20	-12	189
- O=C(CSc1ccc2c(c1)OCCO2)N1CCc2ccccc2C1
    102	6	-22	103
- CCC(CC)C(=O)Oc1coc(CSc2nc(C)cs2)cc1=O
    104	-9	-26	100
- Cc1[nH]n(-c2ccccc2)c(=O)c1N=Nc1ccccc1C(=O)N1CCCCC1
    103	-3	-10	102
- COc1ccccc1NC(=O)C1CCCN(S(=O)(=O)c2cnc[nH]2)C1 (configuration not stated)
    100	2	4	101
- O=C1NC(CCC2CCCCC2)Oc2ccccc21 (configuration not stated)
    101	-4	.	95
- Cc1cc(C(=O)CSc2ccc(S(=O)(=O)N3CCN(C)CC3)cn2)c(C)n1C1CC1
    103	-8	-31	94
- CCc1ccc2nc(N(CCN(C)C)C(=O)C3COc4ccccc4O3)sc2c1 (configuration not stated)
    102	2	9	97
- Cn1c2c(c3ccccc31)CCc1nonc1-2
    101	-45	-4	102
- O=C(CN1C(=O)C2C3C=CC(C3)C2C1=O)NCC12CC3CC(CC(C3)C1)C2 (configuration not stated)
    106	2	-16	95
- CCOC(=O)c1nnc2c(Br)c(C)nn2c1C
    100	-10	-27	100
- CC(C)CS(=O)(=O)C1=NN2C(=N)/C(=C\c3ccco3)C(=O)N=C2S1
    97	17	-61	103
- CC(C)CC(C(=O)O)N1C(=O)C2C3c4ccccc4C(c4ccccc43)C2C1=O (configuration not stated)
    102	.	-18	99
- C1=C(c2ccccc2)Nc2ncnn2C1c1ccccc1 (configuration not stated)
    103	-9	.	110
- Cc1ccccc1S(=O)(=O)NC1=NCCCCC1
    102	-4	.	99

Further entries follow.
Values run as follows: PV pol inh	Mtb MbtI inh	MenB inh	PV pol inh intensity
- COC(=O)N(C)CC1Cc2ccccc2O1 (configuration not stated)
    101	-5	-6	102
- CCN(c1ccccc1)c1nnc(NC(=O)Nc2cccc(OC)c2)s1
    101	12	7	99
- COC1C=CC23c4cc5c(cc4CN(C[C@H]2O)[C@@H]3C1)OCO5 (some centres not stated)
    100	-12	-4	101
- CCOc1ccc(-c2nnc3ccc(SCc4ccc(C(=O)OC)o4)nn23)cc1
    102	9	-19	96
- O=C1C2CC=CCC2C(=O)N1c1ccccc1O (configuration not stated)
    100	14	-1	98
- Cc1ccccc1-c1nc(C#N)c(NCCN2CCOCC2)o1
    101	-468	-27	101
- COc1ccc(CCNC(=S)N(C)C)cc1OC
    109	-8	2	108
- Cn1nc(C(=O)N(CCCN2CCOCC2)Cc2ccco2)c2c1-c1ccccc1SC2
    103	-13	-24	100
- O=C1C2C(c3ccccc3)C=CC(c3ccccc3)C2C(=O)N1Cc1ccccc1 (configuration not stated)
    104	.	-23	109
- C/C(=N\NC(=O)c1cccc(S(=O)(=O)Nc2ccc(C)cc2C)c1)c1ccco1
    99	7	-16	99
- COc1ccc(CNC2CCCCC2C)cc1 (configuration not stated)
    101	-17	-30	102
- COc1ccc2c(c1)c(CC(=O)NC1CCCC1)c(C)n2C(=O)c1ccc(Cl)cc1
    103	.	-18	105
- COCC(C)NS(=O)(=O)c1ccc(NC(=O)C(Cc2ccccc2)NC(N)=O)cc1 (configuration not stated)
    102	-1	-6	107
- Cc1ccc(CCNC(=O)C2CCN(c3nc4ccccc4o3)CC2)cc1
    102	1	-5	97
- O=C(Nc1ccc(OC(F)(F)F)cc1)c1ccccc1-n1cnnn1
    97	12	2	95
- CC(=O)NNc1ccc2nc(C)sc2c1
    99	6	-21	101
- O=C(Cc1cccc(F)c1)N1CCN(S(=O)(=O)c2ccc3c(c2)OCCO3)CC1
    103	2	4	102
- CCN(CC)CP(=O)(c1ccccc1)c1ccccc1
    100	2	-59	101
- CC(C)(C)P(=NC(=O)COc1ccccc1)(N1CCCCC1)N1CCCCC1
    100	2	-7	105
- CCc1cccc(C)c1N1C(=O)CC(C)C1=O (configuration not stated)
    101	-11	-14	104
- O=C(O)c1cccc2ncccc12
    101	3	13	103
- CCC(=O)Nc1ccc(C(=O)NCC(=O)OC)cc1
    101	-10	-11	99
- Cc1cc(C=C(C#N)C#N)c(C)n1-c1ccc(N2CCOCC2)cc1
    101	6	-14	102
- Cc1ccc(Nc2ccccc2N)cc1
    108	-37	.	125
- O=C1c2ccccc2C2=Nc3ccccc3OC12O (configuration not stated)
    100	4	7	102
- Clc1ccc(-c2ccc(-c3nn4c(Cc5ccccc5)nnc4s3)o2)cc1
    98	59	12	96
- O=C(NCC(c1cccs1)N1CCOCC1)C(F)(F)F (configuration not stated)
    101	-8	.	98
- C=CCN1CCN(C(=O)c2ccc(Br)cc2)CC1
    107	1	-24	100
- COC(=O)c1cc(C)nc2c1c(C)nn2-c1ccccc1Cl
    99	-2	7	103
- CCOC(=O)c1sc(=NC(C)=O)n(C)c1C
    101	4	-45	98
- CNC(=O)CN(c1ccc(Cl)cc1Cl)S(C)(=O)=O
    99	3	-15	101
- CCN(CC)c1ccc(/C=C2/C(=O)N=C(N)N2C)cc1
    102	7	-180	119
- CC(=O)Oc1ccc2ccc3ccc(OC(C)=O)c4ccc1c2c34
    98	112	-22	100
- CC(C)CN1C(=O)N(c2ccccc2)C(n2oc(=O)n(-c3ccccc3)c2=O)C1(C)C (configuration not stated)
    98	.	-13	80
- CC(C)Cn1c(SCC(=O)c2ccc3[nH]c(=O)[nH]c3c2)nc2ccccc21
    101	9	-3	101
- CC1=Nc2nc(N3CCCCC3)c(C#N)c3c4c(nc(c23)N1)N(c1ccc(C)cc1)C(=O)C4
    106	110	6	110
- O=C1CCCc2[nH]c(=O)cc(C(F)(F)F)c21
    104	-2	6	109
- CC(C)(C)S(=O)(=O)CCC#N
    100	-21	10	102
- COc1ccc(OCC(=O)Nn2c(=S)[nH]c3ncccc3c2=O)cc1
    100	30	-26	95
- CCN1CCCC1CNC(=O)c1cc2ccc3cccnc3c2[nH]1 (configuration not stated)
    102	-9	-3	100
- O=c1ccc(=O)n(CN2CCN(Cc3ccccc3)CC2)[nH]1
    105	4	1	103
- COC(=O)CSc1nnc(CNC(=O)c2ccc(S(=O)(=O)N3CCCCC3)cc2)n1C
    105	-4	-4	106
- Cc1ccccc1NC(=O)COC(=O)c1ccc2c(c1)C(=O)N(CCCN1CCOCC1)C2=O
    99	-9	-6	109
- O=S(=O)(NCc1ccc(-c2cccs2)cc1)c1cccs1
    105	16	1	105
- Cn1c(=Nc2cccc(O)c2)ccc2ccccc21
    104	-1	-9	102
- COc1ccc(NC(=O)CN(C)C(=O)c2oc3ccccc3c2C)cc1
    104	-2	-22	103
- CC(C)(C)NC(=O)N1c2ccccc2Sc2ccccc21
    104	-6	-43	106
- COc1ccc(-c2nc(C=C3C(=O)c4ccccc4C3=O)c3ccccn23)cc1
    100	-11	-10	99
- CCOC(=O)N1CCC(NS(=O)(=O)c2ccc(Cl)s2)CC1
    107	11	-15	104
- Cn1nc(-c2ccc(Cl)cc2)c2cc(C(=O)NCc3ccco3)sc21
    100	33	-20	100

Continuation:
Values run as follows: PV pol inh	Mtb MbtI inh	MenB inh	PV pol inh intensity
- Cc1cc2occ(CC(=O)Nc3ccc(S(=O)(=O)N4CCOCC4)cc3)c2cc1C(C)C
    105	-13	-48	103
- CCCCc1c(C)nc2ccc(Br)cc2c1SCCC(=O)O
    99	.	3	104
- Cn1nc(C(=O)N(Cc2ccco2)Cc2cccs2)ccc1=O
    102	-6	-3	96
- Cc1c(C=Nc2ccc(SC#N)c(Cl)c2)c(O)[nH]c(=O)c1C#N
    99	16	20	105
- Cc1cc(C)c2c3c1C1C=CCC1CN3C(C(=O)O)C1CC=CC21 (configuration not stated)
    97	13	0	129
- Cc1nnn(C23CC4CC(CC(C(=O)Nc5ccc(Br)cc5)(C4)C2)C3)n1
    105	-9	-12	102
- Cc1ccc(S(N)(=O)=O)cc1F
    101	-9	.	101
- O=C(CCCc1ccccc1)Nc1cccc(C(=O)O)c1
    103	-1	-22	105
- CCN(c1cccc(C)c1)c1ccccc1C
    101	.	-57	106
- O=C(CCC1CCCCC1)Nc1nccs1
    104	-14	-61	102
- CN(C(=O)CSc1cccc[n+]1[O-])c1ccccc1
    102	-3	16	107
- CC1(NS(C)(=O)=O)CC=CC1
    102	1	29*	102
- Cc1csc2nc(CNC(=O)C3CCCCC3)cn12
    102	2	-20	97
- OC(CSc1nncn1-c1ccccc1)C(F)(F)F (configuration not stated)
    103	-4	3	104
- Cc1nc(N2CCOCC2)sc1C(=O)c1ccc(Cl)c(S(=O)(=O)N2CCOCC2)c1
    102	-5	-18	104
- O=C(CC12CC3CC(CC(C3)C1)C2)NCC(=O)N1CCN(Cc2ccccc2)CC1
    104	-10	-24	102
- C#CC(CC)(CC)NC(=O)NC1CCCCC1
    103	-9	-25	100
- OCc1cn(-c2ccccc2)nc1-c1ccc2c(c1)OCCO2
    107	98	-28	109

4 entries from above, sorted by formula weight, low to high:
Values run as follows: PV pol inh	Mtb MbtI inh	MenB inh	PV pol inh intensity
- Cc1csc2nc(CNC(=O)C3CCCCC3)cn12
    102	2	-20	97
- OC(CSc1nncn1-c1ccccc1)C(F)(F)F (configuration not stated)
    103	-4	3	104
- OCc1cn(-c2ccccc2)nc1-c1ccc2c(c1)OCCO2
    107	98	-28	109
- O=C(CC12CC3CC(CC(C3)C1)C2)NCC(=O)N1CCN(Cc2ccccc2)CC1
    104	-10	-24	102

Source: PubChem BioAssay (ICCB-Longwood Screening Facility, Harvard Medical School)
